GIV-Gai inh: inhibitors of GIV GBA-motif binding to rat Galpha-i3; P08753; Galpha-i3/FITC-GIV peptide fluorescence polarization, 90 min; stronger effect = lower value; scaled: aluminum fluoride 0%, vehicle 100%; percent of control (FP), % (concentration not given with the values); actives 0.42% (n = 210,000); AID 1224905;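 active = replicate mean at 85% of control or lower, very high polarization wells dropped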;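 also: wells of about 15 µL received 100 nL stock; the first replicate is given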
Target sequence (P08753 whole entry, looked up): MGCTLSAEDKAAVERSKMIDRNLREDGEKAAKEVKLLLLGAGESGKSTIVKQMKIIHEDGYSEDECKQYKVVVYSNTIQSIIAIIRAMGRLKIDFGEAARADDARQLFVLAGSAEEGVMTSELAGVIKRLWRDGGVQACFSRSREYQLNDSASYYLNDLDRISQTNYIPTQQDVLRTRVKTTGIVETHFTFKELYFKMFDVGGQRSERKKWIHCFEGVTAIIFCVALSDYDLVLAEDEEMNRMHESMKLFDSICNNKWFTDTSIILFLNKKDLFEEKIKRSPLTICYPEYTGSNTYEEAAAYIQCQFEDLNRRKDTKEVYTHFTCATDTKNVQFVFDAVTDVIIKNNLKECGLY
* marks the source's active call; other numbers are inactive results; & = joins results of further samples.

molecule | GIV-Gai inh
CCOP(=O)(OCC)C(=C1C=C(C(C)(C)C)C(=O)C(C(C)(C)C)=C1)P(=O)(OCC)OCC | 101.9
CCN(c1ccc(F)cc1)S(=O)(=O)c1ccc2[nH]cc(C(=O)N3CCN(Cc4ccccc4)CC3)c(=O)c2c1 | 105.8
Cc1nn(-c2ccc3nncn3n2)c(C)c1CCC(=O)N1CCC(Cc2ccccc2)CC1 | 101.8
COc1ccc(S(=O)(=O)N2CCC[C@@H]2C(=O)NCc2csc(C)n2)cc1 | 101.5
COc1cc(OC)c(NC(=O)CSc2nccnc2N2CCSCC2)cc1Cl | 101.3
CCC(C)NC(=O)CSc1nc(NCC2CCCO2)c2ccccc2n1 (configuration not stated) | 113.8
O=S(=O)(NCCc1n[nH]c(Cc2ccc(F)cc2)n1)c1ccc(F)c(F)c1 | 105.0
Cc1nc2c3ccccc3n(Cc3ccccc3)c(=O)n2n1 | 99.7
Cc1cc(C2SCc3cc(C)c(C)cc3CS2)c(O)c([N+](=O)[O-])c1 | 114.4
O=S(=O)(NCCc1ccccc1)c1ccccc1-c1nc(-c2ccccc2)no1 | 98.5
COc1ccc(CNC(=O)CSc2nccc3c2ccn3Cc2ccc(F)cc2)cc1OC | 101.4
Cc1c(C(c2cc(Br)c(O)c(O)c2Br)c2c(C)n(C)n(-c3ccccc3)c2=O)c(=O)n(-c2ccccc2)n1C | 99.4
Cc1c(C)n(CC(O)CN2CCN(Cc3ccccc3)CC2)c2ccccc12 (configuration not stated) | 113.7
CCOC(=O)c1ccccc1NC(=O)CSc1nnc2[nH]c(=O)cc(C)n12 | 100.7
Cc1cccc(C)c1NC(=O)C(Cc1c[nH]c2ccccc12)NC(=O)Oc1ccccc1 (configuration not stated) | 108.5
CCOC(=O)c1sc2nc(SCC(=O)C(C)(C)C)n(CC3CCCO3)c(=O)c2c1C (configuration not stated) | 106.7
Cc1nn(-c2nc3ccccc3s2)c2c1C(c1cc(Br)cs1)CC(=O)N2 (configuration not stated) | 106.0
Clc1ccc(Nc2nc(NCCN3CCOCC3)nc(N3CCCC3)n2)cc1 | 104.4
COc1ccc(CN2CCCC2c2cc(C)on2)c(OC)c1 (configuration not stated) | 127.1
CCOc1ccc(Br)cc1C1Nc2ccc(C)cc2[C@H]2OCC[C@@H]12 (some centres not stated) | 97.1
CCN(CC)C(=O)c1ccc(-c2nc3cc(NS(=O)(=O)c4ccc(C)c(C)c4)ccc3n2C)cc1 | 105.9
N#CC1=C(N)Oc2n[nH]c(-c3ccc(Br)cc3)c2C1c1ccc(OC(=O)N2CCOCC2)cc1 (configuration not stated) | 107.2
COc1cccc(N2C(=O)/C(=C/c3ccc(-c4ccc([N+](=O)[O-])cc4)o3)C=C2c2ccccc2)c1 | 118.3
COc1cccc(/C=C2\SC(=S)N(CCCC(=O)N3CCN(c4ccccc4)CC3)C2=O)c1 | 106.8
COc1ccc(OC)c(NS(=O)(=O)c2cc(-c3nc(C(C)(C)C)cs3)cs2)c1 | 103.0

Looked up above.
Reading for COc1cc(OC)c(NC(=O)CSc2nccnc2N2CCSCC2)cc1Cl in GIV-Gai inh: 101.3
Reading for CCOC(=O)c1sc2nc(SCC(=O)C(C)(C)C)n(CC3CCCO3)c(=O)c2c1C (configuration not stated) in GIV-Gai inh: 106.7
Reading for Cc1c(C(c2cc(Br)c(O)c(O)c2Br)c2c(C)n(C)n(-c3ccccc3)c2=O)c(=O)n(-c2ccccc2)n1C in GIV-Gai inh: 99.4
Reading for CCOC(=O)c1ccccc1NC(=O)CSc1nnc2[nH]c(=O)cc(C)n12 in GIV-Gai inh: 100.7
Reading for Cc1nn(-c2ccc3nncn3n2)c(C)c1CCC(=O)N1CCC(Cc2ccccc2)CC1 in GIV-Gai inh: 101.8
Reading for Clc1ccc(Nc2nc(NCCN3CCOCC3)nc(N3CCCC3)n2)cc1 in GIV-Gai inh: 104.4

3 compounds from above, ordered by their value in GIV-Gai inh, ascending.
molecule | GIV-Gai inh
O=S(=O)(NCCc1ccccc1)c1ccccc1-c1nc(-c2ccccc2)no1 | 98.5
Cc1nn(-c2nc3ccccc3s2)c2c1C(c1cc(Br)cs1)CC(=O)N2 (configuration not stated) | 106.0
Cc1cc(C2SCc3cc(C)c(C)cc3CS2)c(O)c([N+](=O)[O-])c1 | 114.4

Further records
molecule | GIV-Gai inh
CCCNC(=O)C1CCN(c2nc(C3CCC3)nc3csc(C)c23)CC1 | 115.0
COc1ccc(CCn2c(-c3cc(C)ccc3C)csc2=Nc2ccc(F)cc2)cc1OC | 106.8
O=C(CNC(=O)c1cccc(Cl)c1)NCc1cscn1 | 103.2
CC1(C)CC(=O)C2=C(C1)NC1=C(C(=O)c3ccccc31)C2c1ccc(O)c(O)c1 (configuration not stated) | 109.7
CCCSc1c(C(C)C)cnc2c1c(=O)n(C)c(=O)n2C | 105.3
O=C(CN1C(=O)CN(C(=O)NCc2ccccc2)c2ccccc21)NCC1CCCO1 (configuration not stated) | 97.4
COc1ccc(C2CC(c3cccs3)=NN2C(=O)CSc2nnc(CNC(=O)c3ccc([N+](=O)[O-])cc3)n2C)cc1 (configuration not stated) | 105.2
CC(C)c1ccc(NC(=O)CSc2nc3ccccc3n2S(C)(=O)=O)cc1 | 105.8
O=C(N/N=C/c1cccc(O)c1)C1C(c2ccccc2)C(C(=O)N2CCOCC2)C1c1ccccc1 (configuration not stated) | 103.1
CCOC(=O)CC1(NC(=O)N2CCCn3nc(-c4ccncc4)cc3C2)CCCCC1 | 104.1
O=S(=O)(NC1CCCCCC1)c1cc(-c2cc(C(F)(F)F)on2)cs1 | 103.2
CCC(=O)C1=C(c2ccc(C(C)(C)C)cc2)N(C(=O)CC)n2cnnc2S1 | 98.8
Cc1c(C(=O)Nc2ccc(F)cc2Cl)sc2ncn(CC(=O)N3CCN(c4ccccn4)CC3)c(=O)c12 | 101.7
Cc1ccc(-c2nc(CSCC(=O)NC3CCc4ccccc43)no2)cc1 (configuration not stated) | 104.3
COc1ccc(CSc2nccc3c2ccn3CC(=O)N2CCN(c3ccc(F)cc3)CC2)cc1 | 109.5
CCc1nc(SCc2noc(CCC(=O)Nc3ccc4c(c3)C(=O)N(C)C4=O)n2)n[nH]1 | 105.7
Cc1c(Cl)cccc1-n1sc2c(c1=S)-c1ccccc1NC2(C)C | 114.5
COc1cc([N+](=O)[O-])c(Cl)cc1-c1ccc(/C=c2\sc3nc4ccccc4n3c2=O)o1 | 111.6
COc1ccc(/C=C/C(=O)C2CC2)cc1CSc1nc2ccccc2[nH]1 | 103.5
Cc1c(C(=O)N2CC(C)CC(C)C2)sc2ncnc(N3CCC(C)CC3)c12 (configuration not stated) | 113.1
CCc1cc2c(N(C)Cc3ccccc3)ncnc2s1 | 105.8
O=C(Cc1cccc(F)c1)Nc1ccc(SCc2nnc(-c3ccccc3)o2)cc1 | 101.5
CCOc1ccccc1NC(=O)C1CCCN(S(=O)(=O)Cc2ccccc2C)C1 (configuration not stated) | 101.9
CC(C)NC(=O)N1CCCN(Cc2ccsc2)CC1 | 103.3
COc1ccc(NS(=O)(=O)c2cc(-c3nnc(C(=O)N4CCCC4)o3)sc2C)c(OC)c1 | 96.3

molecule | GIV-Gai inh
COc1ccc(OC)c(NS(=O)(=O)c2cc(-c3cc(C(F)(F)F)on3)sc2C)c1 | 96.8
Cc1nn(C)c(=O)c2cc(S(=O)(=O)NCc3ccco3)cn12 | 97.8
COc1ccc(-n2ncc3c(N4CCN(c5ccccc5F)CC4)ncnc32)cc1 | 109.7
CN(Cc1ccccc1)C(=O)c1ccc(-c2ccc(F)cc2)nc1 | 105.0
N#CCSc1nc2c(sc(=S)n2CCc2ccccc2)c(=O)n1Cc1ccco1 | 118.5
CC(C)c1ccc(C2C(C#N)=C(N)N3C(=C2C#N)Sc2ccccc23)cc1 (configuration not stated) | 78.9*
COc1ccc(Nc2nc(-c3nnn(-c4cc(Cl)c(OC)cc4OC)c3C)ns2)cc1 | 101.3
CCOC(=O)c1sc2nc(SCC(=O)N(CC)CC)n(CCCN3CCCC3=O)c(=O)c2c1C | 110.3
COc1ccc(OC)c(NC(=O)CSc2nc3n[nH]c(C)c3c(=N)n2-c2cc(Cl)ccc2C)c1 | 106.2
CC(=O)Nc1ccc(C)cc1S(=O)(=O)N1CCCC(C)(C(=O)NCc2ccccc2)C1 (configuration not stated) | 114.6
CCCc1ccc(C(=O)CC2(O)C(=O)Nc3ccc(C)cc32)cc1 (configuration not stated) | 98.4
O=C(CN(c1cccc(C(F)(F)F)c1)S(=O)(=O)c1ccccc1)Nc1cccc(Br)c1 | 108.7
CCOC(=O)c1ccc(NC(=O)CSc2ncnc3sc4c(c23)CCC4)cc1 | 98.8
O=C(Nc1ccccc1)N1CCC(n2cnc3cc(Cl)ccc3c2=O)CC1 | 106.4
CCCCN(C)C(=O)CSc1nc(NCc2ccc(OC)cc2)c2ccccc2n1 | 105.8
CCOC(=O)Cn1cnc2c(-c3ccccc3)csc2c1=O | 108.8
Cc1nn(-c2ccc3nnc(C)n3n2)c2c1C(c1ccccc1OCc1ccccc1Cl)CC(=O)N2 (configuration not stated) | 100.9
CN1CC=C2C(C#N)=C(N)C(C#N)(C#N)C(c3cccc(O)c3)C2C1 (configuration not stated) | 136.5
O=S(=O)(c1cccn2c(SCc3c(F)cccc3Cl)nnc12)N1CCCCC1 | 101.8
CCc1onc(C)c1C1CCCN1C(=O)Cn1nc(C(F)(F)F)c2c1CCCC2 (configuration not stated) | 94.0
COc1ccc(OC)c(-c2[nH]ncc2CN2CCCC2c2cc(C(C)C)on2)c1 (configuration not stated) | 111.9
CNC(=O)C1(n2cccc2)CCCCC1 | 110.7
Cc1nc(N2CCCCC2)c2c(C)c(C(=O)N3CCOCC3)sc2n1 | 105.5&101.2
CCCOc1ccc(N2C(=O)C3C4C=CC(O4)C3C2=O)cc1 (configuration not stated) | 101.9
CCCc1[nH]n(-c2ccc(F)cc2)c(=O)c1C=NCc1ccc(F)cc1 | 105.2

molecule | GIV-Gai inh
Fc1cccc(Cl)c1-c1nnc2cccc(Cl)n12 | 105.7
O=C1CC(c2cccc(Oc3ccccc3)c2)c2cc(Br)c3ccccc3c2N1 (configuration not stated) | 104.0
CCOc1ccc(C2CC(=O)Nc3c2cnn3-c2ccc3nnc(C)n3n2)cc1OC (configuration not stated) | 97.4
CN(CCNc1ncnc2onc(-c3cc(F)cc(F)c3)c12)C1CCCCC1 | 103.2
COc1ccc(C(=O)N2N=C3c4ccccc4S(=O)(=O)N3C2N2CCCCC2)cc1 (configuration not stated) | 100.1
CC(=O)c1ccc(N2CCN(C(=O)CCCCCn3c(=S)[nH]c4ccc(Br)cc4c3=O)CC2)cc1 | 105.1
Cc1ccc2c(c1)NC(=O)c1cc(S(=O)(=O)N3CCCC3)ccc1O2 | 104.3
O=C1/C(=C/c2ccc(Cl)cc2)C=C(c2ccccc2)N1c1ccccc1 | 125.4
Cc1ccccc1NC(=O)/C(C#N)=C(\Nc1ccccc1)SCc1ccc(Cl)cc1 | 104.5
Cc1c(NC(=O)c2oc(=O)c3ccccc3c2-c2ccccc2)cccc1-c1nc2ncccc2o1 | 114.2
COc1ccc(C(=O)Cn2c(=O)n3nc(-c4ccccc4)nc3c3cc(OC)c(OC)cc32)cc1 | 98.7
COc1ccc(C2C(C(=O)c3ccc(Cl)cc3)N3c4ccccc4C=CC3C2(C#N)C#N)cc1 (configuration not stated) | 117.0
COc1ccc(-c2nnc(COc3cccc(NC(=O)c4nn(C)c5ccccc45)c3)o2)cc1 | 107.7
C(=C\c1nc2ccccc2[nH]1)/c1nc2ccccc2[nH]1 | 104.8
COc1ccc(OC)c(NC(=O)c2cc(S(=O)(=O)N3CCN(c4ccccc4Cl)CC3)ccc2F)c1 | 106.7
N#CC1=C(N)Oc2n[nH]c(-c3cccs3)c2C12C(=O)N(CC(=O)O)c1ccccc12 (configuration not stated) | 107.5
COc1ccc(N2CC(O)(c3ccc(OC)c(OC)c3)[N+]3=C2CCCC3)cc1 (configuration not stated) | 106.7
COc1ccc(N2C(SC)=NC(=Nc3ccccc3)C23CCCCC3)cc1 | 104.6
Cc1ccc(S(=O)(=O)n2c([N+](=O)[O-])cnc2C)c(C)c1 | 104.6
CCN(CC)S(=O)(=O)c1ccc2c(c1)cc(C(=O)N1CCN(c3ccccc3)CC1)n2C | 108.4
COc1ccc(C2/C(=C(\O)c3ccccc3)C(=O)C(=O)N2c2nnc(C)s2)cc1 (configuration not stated) | 116.2
O=C(NCc1ccc(Cl)cc1)c1ccc(Oc2ccnc(-c3ccc(F)cc3)n2)cc1 | 102.3
CCOc1ccc(-c2nn3c(=O)c(NC(=O)c4ccc(C(C)(C)C)cc4)cnc3o2)cc1 | 104.2
CN(C)c1ccc(C2Nc3ccc4ccccc4c3C3=C2C(=O)CC(C)(C)C3)cc1[N+](=O)[O-] (configuration not stated) | 110.5
CCCN(Cc1ccc(C)cc1)Cc1cc(=O)n2nc(CC)sc2n1 | 101.4

molecule | GIV-Gai inh
COc1ccccc1CNC(=O)C1(C)Cc2ccccc2C(=O)N1c1ccc(C(C)C)cc1 (configuration not stated) | 104.8
O=C(c1ccc2ccnc(N3CCN(c4ccc(F)cc4)CC3)c2c1)N1CCN(c2ccccn2)CC1 | 101.9
COc1ccc(Cl)cc1NC(=O)N1CCN(c2nc3ccccc3n3cccc23)CC1 | 83.3*
O=[N+]([O-])/C(C(Cl)=C(Cl)Cl)=C(\Nc1cccc2ccccc12)Sc1ccccc1 | 111.2
CCOCCSc1c(C(C)C)cnc2c1c(=O)n(C)c(=O)n2C | 104.4
CNC(=O)c1ccsc1NC(=O)CS(=O)(=O)c1ccc(C)cc1 | 106.9
CCN(CC)C(=O)c1sc(NC(=O)c2ccnn2C)c(C(=O)OC(C)C)c1C | 106.7
COc1ccc(-c2csc(-c3cc4cc(OC)ccc4oc3=O)n2)cc1 | 104.8
COc1ccc(NC(=O)CSc2nc3ccccc3c(=O)n2CCc2ccc(S(N)(=O)=O)cc2)c(OC)c1 | 107.3
O=C(Nc1ccccc1)N1CCN(Cc2nc3cccnc3n2-c2ccccc2)CC1 | 96.8
COCCn1c(C2CCCNC2)n[nH]c1=O (configuration not stated) | 99.5
Cc1c(C(=O)NCc2ccccn2)sc2ncnc(N3CCc4ccccc4C3)c12 | 106.3
Cc1cccc(-c2noc(-c3nnn(Cc4nc(-c5ccccc5)oc4C)c3C)n2)c1 | 106.8

Screens as filed in PubChem.

A portion of the library. The share of hits here may be higher or lower than overall.
